Source: PubChem BioAssay (National Center for Advancing Translational Sciences (NCATS))
NPR1 antag: blocks ANP-stimulated signaling of human Npr1 receptor; P16066; actives 1.6% (n = 76,000); HEK293 hNpr1 GloSensor cGMP, ANP-stimulated luminescence; Potency, µM (highest dose often 46.3 µM), inactives show at the highest dose activity change, negative = inhibition, usual class: inhibitors; active = well fitted inhibition curve with a large enough effect; inconclusive = small, poorly fitted or top-dose-only effect; inactive = no such curve, though single readings can be large or run the other way;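 further: nearly all actives have a fitted effect of over 60% in size; nearly all hits also lower the signal before the agonist is added; a reference antagonist and vehicle were the controls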
Target sequence (P16066 whole entry, looked up): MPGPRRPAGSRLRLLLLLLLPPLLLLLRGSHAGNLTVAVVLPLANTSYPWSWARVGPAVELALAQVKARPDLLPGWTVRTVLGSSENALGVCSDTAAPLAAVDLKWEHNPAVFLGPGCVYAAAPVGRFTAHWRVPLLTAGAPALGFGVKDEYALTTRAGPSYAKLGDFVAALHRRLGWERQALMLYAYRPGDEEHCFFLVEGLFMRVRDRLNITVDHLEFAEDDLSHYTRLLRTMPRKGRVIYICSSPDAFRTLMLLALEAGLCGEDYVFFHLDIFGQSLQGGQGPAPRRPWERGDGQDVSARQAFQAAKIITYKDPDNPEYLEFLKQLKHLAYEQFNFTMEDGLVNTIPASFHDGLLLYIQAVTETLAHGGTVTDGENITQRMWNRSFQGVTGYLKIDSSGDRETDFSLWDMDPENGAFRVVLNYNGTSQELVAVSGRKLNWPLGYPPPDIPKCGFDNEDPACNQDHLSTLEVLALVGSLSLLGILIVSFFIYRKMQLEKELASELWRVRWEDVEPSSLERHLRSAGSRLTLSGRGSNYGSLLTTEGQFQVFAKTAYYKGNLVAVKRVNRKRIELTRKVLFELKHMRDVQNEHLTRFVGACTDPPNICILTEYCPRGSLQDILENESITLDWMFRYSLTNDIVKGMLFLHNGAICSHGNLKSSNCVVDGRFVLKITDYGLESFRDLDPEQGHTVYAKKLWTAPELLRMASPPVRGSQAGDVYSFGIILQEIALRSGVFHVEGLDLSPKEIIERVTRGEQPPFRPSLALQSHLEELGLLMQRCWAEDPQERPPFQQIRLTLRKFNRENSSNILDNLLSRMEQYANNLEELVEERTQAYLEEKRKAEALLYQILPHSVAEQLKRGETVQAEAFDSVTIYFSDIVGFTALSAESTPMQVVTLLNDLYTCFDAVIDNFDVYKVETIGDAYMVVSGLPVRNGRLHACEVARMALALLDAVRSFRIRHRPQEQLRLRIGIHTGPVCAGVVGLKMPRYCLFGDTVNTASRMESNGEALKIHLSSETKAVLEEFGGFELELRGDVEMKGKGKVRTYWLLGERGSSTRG
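Compound pre-incubated 30 min at room temperature on GloSensor-loaded HEK293 cells stably carrying hNpr1 and the pGS-40F cGMP biosensor. Stimulation uses hNppA at 0.1 nM final; luminescence is taken at baseline and 20 min post-agonist.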
Starred values were filed as active, the others as inactive; ? = inconclusive; [ ] = remark or other dose. On the % scale 0 is the no-effect control and ±100 the full control effect; potency means the concentration at half of the fitted maximal effect. An excerpt; count on the stated rates, not on these rows.

SMILES	NPR1 antag
COc1cc(C(=O)N2CCC(Cc3nc(-c4ccccc4)no3)CC2)cc(OC)c1OC	?
CC(C)CCN(C)Cc1ccccc1C(F)(F)F	15%[70.6 µM]
COc1ccc(C(=O)N(C)C2CCOc3ccccc32)cc1 (stereo not drawn)	14%[70.6 µM]
CCCNC(=O)N1CCC(N2C(=O)[C@H](OCCOC)[C@@H]2c2ccncc2)CC1	-1%
FC(F)Oc1ccccc1CN(CC1CCN(C2CCCC2)CC1)CC1CCCO1 (stereo not drawn)	-16%
CC1Oc2ccc(NC(=O)COc3ccccc3)cc2CN(Cc2ccccc2Cl)C1=O (stereo not drawn)	-5%
Cc1ccc(C2(O)CCN(CC(c3ccccc3)c3ccccc3)CC2)nc1	-5%
CCC(=O)N1CCN(c2nc3c(s2)CC(C(=O)Nc2cccc(C)c2C)CC3)CC1 (stereo not drawn)	-20%
CCc1nc2c(c(-c3ccc(O)cc3)n1)CCN(C(=O)Nc1ccc(Cl)cc1)CC2	-23%
COc1ccc(-c2cc(N3CCC(NC(=O)c4ccc(Cl)cc4)CC3)n[nH]2)cc1	?
COc1ccc(-c2ccc3ncc(Nc4cccnc4OC)n3n2)cn1	-2%[70.6 µM]
Cc1noc(-c2ccn3c(CNC(=O)C(C)c4ccccc4)nnc3c2)n1 (stereo not drawn)	13%
CCOc1ccccc1NC(=O)N1CCCC(c2noc(COc3ccccc3F)n2)C1 (stereo not drawn)	-3%
Cc1ccc(C(=O)N2CCN(c3nnc4cccc(C)n34)CC2)cc1C	5%
CC1(C(=O)N2CCC2)CN(Cc2ccccc2)Cc2ccc(N3CCOCC3)nc21 (stereo not drawn)	-3%[70.6 µM]
CC1(C)C(=O)N(Cc2ccccc2)[C@H]2CN(c3ccnc(N4CCOCC4)c3)C[C@@H]2[S+]1(=O)[O-]	5%
O=C(Cn1ccn2nc(-c3ccccc3)c(CO)c2c1=O)Nc1ccccc1C(F)(F)F	-13%
CN(CC1CCOCC1)C(=O)Cc1cccc(Cl)c1	0%
COc1ccccc1-c1onc(C)c1C(=O)NCc1ccccc1Cl	2%
CCCCCC(=O)N1CCC(O)(c2csc(CN3CCc4ccccc4C3)n2)CC1	?
Cc1cccc(CNC(=O)Cc2ccc(N(Cc3ccccc3)C(=O)c3ccco3)cc2)c1	-3%
COc1cccc(CC(=O)NCCc2ncc(C)n2CC2CC2)c1	-1%
CCOc1cccc(-c2nc(C(=O)NCCOC)cs2)c1	-3%
CC1(c2ccccc2)N(Cc2cccnc2)C(=O)OC12CCN(C(=O)COc1ccccc1C(N)=O)CC2 (stereo not drawn)	2%
COCC[C@]1(O)CCN(C(=O)CCc2ccccc2Cl)C[C@H]1C	3%
NCCC[C@@H](N)C(=O)N1CCC2(CCC(=O)N(Cc3ccccc3)C2)CC1	-3%
Cc1ccc(C2Cn3nnc(C(=O)N4CCC(C(=O)NCCc5ccccc5)CC4)c3CO2)cc1 (stereo not drawn)	4%
C=CCNC(=O)C1CC(c2cccc(C)c2)CN(C(=O)NCCCC)C1 (stereo not drawn)	6%
CN(C)c1ccc(CN2CC[C@H](c3nc4cc(Cl)ccc4o3)C2)cc1	?
Cc1cnc(CCNC(=O)Cc2ccncc2)n1CC1CC1	13%
CCOCCOC1CCN(C(=O)c2ccccc2OC)CC1	1%
CN(Cc1ccc(-c2ccccc2)cc1)C(=O)Nc1ccc(Cl)cc1	?
Cc1nnc(-c2cc(-c3cccc(O)c3)ccn2)n1CCc1ccccc1	-14%[70.6 µM]
COCCCNC(=O)c1cnc2c(c1)N(C(=O)Cc1cn(C)c3ccccc13)CCC2	-1%[70.6 µM]
O=C(CC1NCCNC1=O)OC1CCCCC1 (stereo not drawn)	-4%
Cc1nnc(-c2cc(Nc3cccc(N(C)C)c3)ccn2)n1Cc1ccccc1	-16%[70.6 µM]
O=C(NCc1ccccc1)C1(CCO)CC12CCOCC2 (stereo not drawn)	-15%
O=C([C@@H]1C[C@H](F)CN1C(=O)Nc1ccccc1C(F)(F)F)N1CCCCC1	5%
CN1CCc2c([nH]c3ccccc23)C12CCN(C(=O)c1cccn1C)CC2	8%
COc1ccc(C(=O)NC2CCN(c3cc(-c4ccc(OC)cc4)[nH]n3)CC2)cc1	-19%
O=C(CC1CC1)N1CC(F)(F)C[C@H]1c1nc(-c2ccncc2)no1	1%
COc1ccc(CC(=O)N2CCCN(c3cc(-c4ccccc4)[nH]n3)CC2)cc1OC	-1%
O=C1CCCCC(Cc2ccccc2)(C(=O)NCc2ccc(F)cc2)N1 (stereo not drawn)	-17%
COc1ccc(CNC(=O)CCn2ccn3nc4c(c3c2=O)CCCC4)c(OC)c1	-1%
COCc1cccc(C(=O)N2CC[C@@]3(O)CCN(S(C)(=O)=O)C[C@H]3C2)n1	6%
Cc1nnc(-c2cc(-c3cccc([S+](C)(=O)[O-])c3)ccn2)n1CCc1ccccc1	0%[70.6 µM]
CCC(=O)N1CCc2c(C(=O)NCc3cccnc3)cccc21	-3%
COCC(=O)N[C@@H]1CN(Cc2ccc(OC)cc2OC)C[C@H]1CO	4%
COc1ccc2nc([C@H]3CCN(C(=O)COCC(=O)O)C3)[nH]c2c1	-18%[70.6 µM]
O=C(Nc1ccc2c(c1)CN(Cc1ccc3c(c1)OCO3)C(=O)CO2)c1ccc(F)cc1	0%
COCCNc1nc2cc(C(=O)N3CC[C@H]4CNC[C@H]43)ccc2n1C	5%
COc1ccc(OCc2nc(C3CN(C(=O)CCCc4ccccc4)C3)no2)cc1	?
CCOc1ccc2c(n1)CCN(C(=O)c1ccccc1C)C2	3%
Cc1ccccc1NC(=O)c1cnc2c(c1)N(C(=O)CCc1ccccc1)CCC2	?
Fc1ccc(CN2CCNc3cc(Nc4ccccc4)ncc3C2)cc1F	-17%[70.6 µM]
Cc1ccc(C(=O)N2CCCC(C(=O)NCc3ccccc3)CCNC(=O)CC2)s1 (stereo not drawn)	-1%
O=C(NCCn1cccc1-c1nc(-c2ccc3c(c2)OCO3)no1)c1ccc(Cl)cc1	-22%
O=C(c1cnccn1)N1CCC(Oc2cccnc2)C1 (stereo not drawn)	4%
CN(C)Cc1nnc(C2CC(Nc3cncc(C(=O)N(C)C)n3)C2)n1C (stereo not drawn)	0%
COc1ccc(CNC(=O)N2CCC[C@H]2C(=O)N2CCCCCCNC(=O)CC2)cc1	4%
The list goes on.
SMILES	NPR1 antag
CN(Cc1cc(C2CC2)n[nH]1)C(=O)C(c1ccc(F)cc1)N(C)C (stereo not drawn)	3%
O=C(c1ccc(F)cc1F)N1CCC2(CC1)NC(=O)N(Cc1ccccc1)C2=O	-18%
COC[C@@H]1[C@@H](NC(=O)c2cnc(C)nc2-c2ccccc2)[C@@H]2CCO[C@H]12	1%
CN1C[C@H](NC(=O)c2cccnc2)CCC[C@@H](C(=O)NCc2cc(F)cc(F)c2)CC1=O	2%
CCCCN1CC(Oc2ccccc2C(=O)NC2CC2)C1	-15%
CCN1c2cc(C(=O)Nc3ccc(-n4ccnc4)cc3)ccc2C(=O)N2CCCCCC21 (stereo not drawn)	-3%
O=C(O)c1ccnc(-c2ccnc(NCCN3CCCCC3CO)n2)c1 (stereo not drawn)	1%
CSc1ccc(C(C(=O)O)N2CCN(Cc3csc(C)n3)CC2)cc1 (stereo not drawn)	-3%
Cc1ccc(-n2c(C3CCN(C(=O)COc4ccc(Cl)cc4)CC3)n[nH]c2=O)cc1	7%
O=C(NC[C@H]1O[C@@H](CC(=O)N2CCN(c3ccccc3)CC2)[C@H](O)[C@@H]1O)Nc1cccc(F)c1	-14%
CC(C)CN1CCCC(c2nc3ccc(F)cc3c(=O)[nH]2)C1 (stereo not drawn)	12%[70.6 µM]
N#Cc1ccc(C(=O)NC2CCN(c3cc(-c4ccc(Cl)cc4)[nH]n3)CC2)cc1	?
CCC[C@H]1CN(C(C)=O)C[C@@H]1NC(=O)c1ccc(N2CCCC2=O)cc1	7%
COC(=O)CN1C(=O)[C@@H]2C[C@@H](O)CN2C2(CN(C3CCN(C)CC3)C2)C1=O	-2%[70.6 µM]
COCCOc1ccc(C(=O)N[C@@H]2CN(C(=O)Nc3cccc(OC)c3)CCC[C@H]2O)cc1	-1%
COc1ccc(C(=O)N2CCCCC2c2nc(CCOc3cccc(C)c3)no2)cn1 (stereo not drawn)	?
COc1ccccc1C(=O)NC[C@H]1Cn2c(-c3ccc4c(c3)OCCO4)cnc2CO1	-19%[70.6 µM]
Cc1noc(C)c1-c1cc2cc(CN(C)C)oc2c(NCCOc2ccccc2)n1	-21%[70.6 µM]
O=C1Nc2ccccc2O[C@H]2C[C@@H]1N(Cc1ccccc1)C2	-13%[70.6 µM]
C[C@]1(CO)[C@H]2Cc3sc(NC(=O)c4c(F)cccc4F)nc3[C@@H](CC(=O)O)[C@]2(C)CC[C@H]1O	2%
CN(C)C(=O)CC(O)c1cc2n(n1)CCN(C(=O)Cc1ccsc1)C2 (stereo not drawn)	7%
Cc1c(Cl)cccc1NC(=O)N1C[C@@H](F)C[C@H]1C(=O)N1CCc2ccccc2C1	-18%
O=C(CCc1ccccc1)N1CCNc2cnc(Nc3ccc(-n4ccnc4)cc3)nc2C1	-2%
CCOc1ccc(C(=O)N2CCC(n3cc(-c4nc(-c5ccccc5)no4)nn3)CC2)cc1	-25%
CS(=O)(=O)c1ccc(CN2C[C@@H](F)[C@@H](OCc3nc4ccccc4[nH]3)C2)cc1	-20%[70.6 µM]
CC1(c2ccccc2)N(Cc2cccnc2)C(=O)OC12CCN(C(=O)Cc1ccc(Cl)cc1)CC2 (stereo not drawn)	4%
CC(C)CC(=O)N1CCN(c2nnc3ccc(C(F)(F)F)cn23)CC1	11%
COc1ccc(C2(C(=O)N3C[C@@H](CO)[C@H](c4ccccn4)C3)CC2)cc1	-13%
COC[C@@H]1CN(Cc2c(OC)cccc2OC)C[C@H]1c1ccncc1	6.3µM*
O=C(Cc1ccc2c(c1)OCO2)N1CCNc2cnc(Nc3cccc(F)c3)nc2C1	40µM*
CC(=O)N1CCc2nc(C)nc(-c3ccc(O)cc3)c2C1	10%[70.6 µM]
COc1ccc(NC(=O)COc2ccc(-c3nnc4n3CCCC4)cc2)cc1OC	-6%
CCC1(C(=O)NCc2ccc(C)cc2)CCCCC(=O)N1 (stereo not drawn)	-1%
O=C(O)C(c1cc2ccccc2o1)N1CCC(CCN2CCCC2=O)CC1 (stereo not drawn)	-1%
O=c1c2c(nc3cc[nH]n13)CCN(S(=O)(=O)c1ccccc1Cl)C2	-2%
CN(CC1(C)CCOCC1)C(=O)Cc1ccccc1	-11%

Fetched by compound from the list above, 5 records:
SMILES	NPR1 antag
COC[C@@H]1CN(Cc2c(OC)cccc2OC)C[C@H]1c1ccncc1	6.3µM*
CC(=O)N1CCc2nc(C)nc(-c3ccc(O)cc3)c2C1	10%[70.6 µM]
COc1ccc(C2(C(=O)N3C[C@@H](CO)[C@H](c4ccccn4)C3)CC2)cc1	-13%
CCC1(C(=O)NCc2ccc(C)cc2)CCCCC(=O)N1 (stereo not drawn)	-1%
COc1ccc(NC(=O)COc2ccc(-c3nnc4n3CCCC4)cc2)cc1OC	-6%

Ordered by molar mass (lowest first): part of the list above.
SMILES	NPR1 antag
CCOc1cccc(-c2nc(C(=O)NCCOC)cs2)c1	-3%
O=C1CCCCC(Cc2ccccc2)(C(=O)NCc2ccc(F)cc2)N1 (stereo not drawn)	-17%
O=c1c2c(nc3cc[nH]n13)CCN(S(=O)(=O)c1ccccc1Cl)C2	-2%

Among those listed so far, these have a furan ring, fused or not.
SMILES	NPR1 antag
Cc1cccc(CNC(=O)Cc2ccc(N(Cc3ccccc3)C(=O)c3ccco3)cc2)c1	-3%
Cc1noc(C)c1-c1cc2cc(CN(C)C)oc2c(NCCOc2ccccc2)n1	-21%[70.6 µM]
O=C(O)C(c1cc2ccccc2o1)N1CCC(CCN2CCCC2=O)CC1 (stereo not drawn)	-1%

(cont.)
SMILES	NPR1 antag
COc1ccc(CN2Cc3[nH]cnc3C[C@H]2c2nc(-c3ccc(F)c(Cl)c3)no2)cc1	-13%
COc1cccc(CN2CCCCCCNC(=O)CC2c2ccccc2)c1OC (stereo not drawn)	1%
Cc1ccccc1[C@H]1C[C@@H](O)[C@@H](O)[C@@H]1NC(=O)c1cccnc1	6%[70.6 µM]
Cc1oc(C(O)c2ccccc2F)nc1C(=O)Nc1ccccc1 (stereo not drawn)	-30%[70.6 µM]
COc1ccccc1CCC(=O)N1CCC(Cc2nc(-c3ccccc3)no2)CC1	?
O=C(CN1CCCc2nc(-c3ccncc3)ncc2C1=O)NCCCN1CCCC1=O	-2%
CC(C)CC(=O)NCC1Cn2cccc2C(=O)N1C (stereo not drawn)	-2%
Cc1nc2ccc(C(=O)N[C@@H]3COCC[C@@H]3OCc3cscn3)cc2o1	-13%
Cc1ccc(NC(=O)Cn2ccn3nc4c(c3c2=O)CCCC4)cc1Cl	-8%
COc1ccc(CN2Cc3[nH]cnc3C[C@H]2C(=O)NCc2ccco2)cc1	2%[70.6 µM]
CC(C)CN1CC2(CCN(C(=O)c3ccc4occc4c3)CC2)CC1=O	-6%
CC(C)NC(=O)N1CCOc2ccc(CCC(=O)NCCN3CCOCC3)cc2C1	11%
Cc1nc(CN2CC3(CCN(C)C3)c3cc(C(=O)NCC4CC4)ccc32)cs1 (stereo not drawn)	1%[70.6 µM]
CN(C)c1ccc(CNCC2(COc3ccc(S(C)(=O)=O)cc3)C[C@@H](O)[C@@H](O)C2)cc1 (stereo partly drawn)	9%
